PrP UTR inh: inhibition of PrP 5' UTR reporter expression; cell-based PrP 5' UTR mRNA reporter, plate reader; inhibition, % (concentration not given with the values); actives 0.35% (n = 340,000);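 active = every replicate at 50% or more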;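 also: 0 = median of the neutral control wells; tested in H4 reporter cells; numbers are from one replicate; inactives centre near -14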
Mtb hypoxia inh: PubChem AID 1159583. fluorescence inhibition, % (concentration not given with the values). actives 0.1% (n = 300,000). M. tuberculosis hypoxia-regulated fluorescent reporter, fluorescence;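 active = 35 to 45% if threefold the growth effect, above 45% if 1.5-fold the growth effect; inactive = the rest, general growth blockers included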;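 also: wells of about 50 µL received 100 nL stock; 0% = vehicle wells and 100% = reference inhibitor wells; whole bacteria with a GFP reporter of the hypoxia response; strong numbers were not always called active; many hits fall short of the cut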
BJeLR viability: MLPCN primary cell-based screen for lethality selective to Ras in HRASV12 cells. BJeLR (HRASV12) viability, CellTiter-Glo ATP luminescence, 48 h; reference of the scale not given here. inhibition, % (no concentration beside the values). actives 0.17% (n = 300,000);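 active = replicate mean above 50%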;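 also: 50 nL library stock added to about 25 µL; numbers are from one replicate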
RN4220 kill: growth inhibition of S. aureus RN4220, primary screen, OD600; 16 h; inhibition, % (test concentration not listed); actives 0.33% (n = 330,000); AID 1259311, 2017;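 active = z-score of -3 or lower and OD600 up to 0.18 on both plates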;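 also: plate controls were untreated cells for no effect and reference antibiotic for full effect; stock transfer was 100 nL into about 80 µL; one replicate is shown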
ugtP null kill: growth inhibition of ugtP-null S. aureus, primary screen, RN4220 ugtP deletion, OD600; 16 h; some inactives read as strong as hits; actives 0.54% (n = 330,000); growth inhibition, % (no concentration beside the values);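 active = z-score under -3 and OD600 up to 0.15 on both plates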;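 also: plate controls were untreated wells for no effect and antibiotic for full effect; wells of about 80 µL received 100 nL stock; the first replicate is given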
Bead autofluor: compound fluorescence in toxin protease inhibitor counterscreen; compound autofluorescence counterscreen, microsphere flow cytometry; active compounds read high; fluorescence intensity (concentration not given with the values); actives 3.1% (n = 360,000);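 active = at least 3 SD above the mean of all compounds, about 16000 in these data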;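 also: 100 nL of 1 mM stock went into each well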
Mtb hypoxia inh growth: second read-out of Mtb hypoxia inh, no call of its own (marks repeat the call); growth inhibition, %; measured here: M. tuberculosis growth (absorbance);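 0% = vehicle and 100% = reference antibiotic; read after six days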
* marks the source's active call; other numbers are inactive results; . = not tested or not shown.

SMILES	PrP UTR inh	Mtb hypoxia inh	Mtb hypoxia inh growth	BJeLR viability	RN4220 kill	ugtP null kill	Bead autofluor
O=C(COc1cccc2ccccc12)NCc1cccnc1	-6.4	4.0	1.0	-3.0	7.4	-1.3	4206
CSc1ccc(CCNC(=O)CCc2nnc3ccc(N4CCC5(CC4)OCCO5)nn23)cc1	-6.2	2.9	0.6	14.1	0.4	1.6	4828
CC1CN(Cc2ccccc2)C(C)CC1O (stereo not drawn)	-20.0	-5.4	-11.4	10.0	4.4	3.1	4514
O=C1COc2ccc(OCc3ccc(F)cc3)cc21	-132.6	-7.5	-1.4	-0.5	-3.7	-9.6	23249*
Cn1c(=O)c2c(nc(SCCN3CCOCC3)n2Cc2ccccc2)n(C)c1=O	-16.5	.	.	4.2	-2.2	7.3	2396
Cc1ccc2cccc(OCc3ccc(Br)cc3)c2n1	-5.1	3.3	2.3	-7.0	3.4	12.7	3567
O=C(O)C1CCN(S(=O)(=O)c2ccc(N3CCOCC3)c([N+](=O)[O-])c2)CC1	-30.0	4.5	3.6	-2.9	4.9	3.2	2139
CC(C)(CNC(=O)c1cccs1)CNC(=O)c1cccs1	-17.9	2.4	4.6	-9.5	-0.7	5.7	10206
CC(C)C(=O)N(Cc1cc2ccccc2[nH]c1=O)C(C)C	-3.2	2.4	6.8	-3.3	0.1	-2.3	10404
Cc1c(NC(N)=O)c(=O)n(-c2ccccc2)n1C	-7.6	15.8	5.8	3.0	5.2	4.0	2067
CC12COC3(C(=O)Nc4cccnc4)CC1CCC32C (stereo not drawn)	-6.8	.	.	3.3	0.2	5.4	4004
CCOC(=O)C1(Cc2ccccc2C(F)(F)F)CCN(CC2CC2)CC1	-44.4	15.3	0.2	3.3	2.8	1.8	4277
COc1ccc(C(=O)NC(C(=O)NCCc2ccc3c(c2)OCCO3)C(C)C)cc1 (stereo not drawn)	-13.7	-3.4	-1.5	-0.9	10.6	3.8	3429
CCOC(=O)C1=C(C)NC(=S)N(C=O)C1c1ccccc1 (stereo not drawn)	-3.3	3.3	3.9	3.0	7.8	10.3	4748
Nc1cc(=O)[nH]c(SCC(=O)Nc2ccc(Cl)c(Cl)c2)n1	-10.8	6.1	10.4	6.2	1.8	-0.4	5159
CCN1CCC2(CC1)NC(=O)c1ccccc1O2	9.5	-0.9	3.4	-8.1	10.8	-2.9	2726
COCCC(=O)NNS(=O)(=O)c1ccc(Cl)cc1	-12.1	11.2	0.1	-2.1	3.4	5.7	2243
Cc1cc(C)c(S(=O)(=O)NC2CC3CCC2C3)c(C)c1 (stereo not drawn)	-22.7	-5.2	0.0	-0.6	-2.4	8.2	3926
CCCCNS(=O)(=O)c1ccc2nc(SCC(=O)Nc3ccccc3Cl)[nH]c2c1	-28.7	-5.1	-2.9	-6.3	-4.0	-29.3	2187
O=C(COc1cccc2cccnc12)N/N=C1\SCC(=O)N1Cc1ccco1	-2.0	.	.	-1.0	.	.	3247
COc1ccccc1N/C(N)=N/c1nc(C)cc(C)n1	-11.1	-10.7	1.1	7.5	3.1	3.9	5147
CN1CCSc2ccc(C(=O)NCc3cccc(Br)c3)cc21	5.9	7.1	8.9	1.1	-14.5	-11.6	5062
Cc1noc2ncnc(Oc3ccc(C(C)(C)C)cc3)c12	-48.1	-6.2	6.4	-4.5	1.4	4.5	4370
O=C(COc1ccc(-n2cnnn2)cc1)Nc1ccc(F)cc1	-15.2	-0.4	-0.4	.	1.3	14.7	8019
CC(CCC1CC(C)OC1=O)=NNC(N)=S (stereo not drawn)	.	-6.6	-6.3	.	-0.7	-1.4	.
Other structures follow.
SMILES	PrP UTR inh	Mtb hypoxia inh	Mtb hypoxia inh growth	BJeLR viability	RN4220 kill	ugtP null kill	Bead autofluor
Cc1cc(OCC(=O)NCc2ccncc2)c2c3c(c(=O)oc2c1)CCC3	-11.9	6.3	-5.0	-6.3	0.6	14.4	5799
NC(=O)c1sc2cc(C(F)(F)F)cnc2c1-c1cccs1	-8.2	.	.	-7.0	-1.6	1.2	2855
CC1=NN(C(C#N)c2ccccc2)C(c2ccccc2)C1 (stereo not drawn)	-5.0	9.4	-1.7	3.6	3.2	2.0	.
CC(=O)Nc1ccc(N=Cc2c(O)ccc3ccccc23)cc1	-11.1	10.1	3.5	-3.3	3.9	4.8	4224
NC(=O)c1cc2ccccc2oc1=NNC(=O)c1ccc(F)cc1	.	6.7	6.6	.	-1.0	-14.8	.
CC1CCCCC12NC(=O)N(CC(=O)NCCc1ccccn1)C2=O (stereo not drawn)	-8.7	4.6	1.1	-9.4	6.9	9.0	16122
O=C(O)c1cc(-c2ccc(C=NN3C(=O)C4C5C=CC(C6CC56)C4C3=O)o2)ccc1Cl (stereo not drawn)	.	2.3	12.3	.	2.7	-5.9	.
O=C1Nc2ccc(S(=O)(=O)N(CCO)CCO)c3cccc1c23	-7.4	12.2	-0.6	-4.7	6.0	15.0	3165
CCC(C(=O)NC(C)(C)C)N(C(=O)c1ccc(Cl)nc1)C1CCCC1 (stereo not drawn)	-8.8	11.3	12.6	-7.9	11.9	4.8	5234
NC1=NS(=O)(=O)NC1c1cccc(Cl)c1 (stereo not drawn)	-3.2	3.7	8.0	0.7	-7.0	-0.5	3098
CCOc1ccccc1C(=O)NCC(=O)NNC(=O)c1cccc(S(=O)(=O)Nc2ccc(OC)cc2)c1	-5.4	-2.8	1.5	-10.0	-0.4	4.9	6493
COc1ccc(S(=O)(=O)N2CCCCCC2)cc1C(=O)N(C)CCOc1ccc(Cl)cc1	-12.5	8.5	-2.0	13.2	-2.3	2.5	5553
CCC(=O)Nc1ccc(C(=O)CSc2nnc(-c3ccccc3F)n2CCc2ccccc2)cc1	-12.0	2.1	2.9	8.2	11.2	-3.9	2079
Cc1cn2c(=O)c(C(=O)N3CCN(c4ccccc4F)CC3)cnc2s1	-7.4	-9.4	4.4	-11.0	0.9	-0.3	6167
O=C(Nc1ccc2nn(-c3ccccc3)nc2c1)c1ccc2c(c1)OCCO2	-11.4	.	.	6.3	-13.7	-15.0	3239
Cc1ccc2c(c1)nnn2C1CCN(C(=O)C2CCCCC2)CC1	-0.1	14.0	16.0	-10.3	5.4	-2.7	4756
CN1CCc2c(sc3c2C(=O)NC(/C=C\c2ccccc2)N3)C1 (stereo not drawn)	.	4.6	2.0	-12.0	8.1	5.2	3691
COc1ccc(N2CCN(C(=O)CN3c4cccc5cccc(c45)S3(=O)=O)CC2)cc1	.	5.8	7.2	.	4.5	2.9	5276
CSc1ccccc1C(=O)Nc1cc(C)ccc1C	-15.7	1.6	1.4	-1.3	-3.2	6.8	2573
O=C(O)CNC1=NCCCCC1	-7.6	8.5	6.5	5.0	2.1	5.5	6675
CCN1C(=O)N(S(=O)(=O)c2ccc(C)cc2)[C@@H](c2ccccc2)C(C(=O)OC)=C1C	-2.7	.	.	-0.3	.	.	3865
CC(C)C1COCCS(=O)(=O)N1Cc1ccccc1 (stereo not drawn)	.	8.0	9.1	.	5.8	2.9	.
CCc1cccc2c(C(=O)CN3C(=O)NC4(CCCCC4)C3=O)c[nH]c12	-27.4	4.5	5.2	.	-0.8	-2.8	3908
C/C(=N\NC(=O)CSc1ncccn1)c1ccc2c(c1)OCCO2	-15.2	.	.	4.7	.	.	5018
Cc1nn(C)cc1NC(=O)CC12CC3CC(CC(C3)C1)C2	-13.9	20.8	10.9	-1.8	-2.1	-1.3	2434

Compound profiles, from the list above. Values in the order: PrP UTR inh	Mtb hypoxia inh	Mtb hypoxia inh growth	BJeLR viability	RN4220 kill	ugtP null kill	Bead autofluor
Listed for NC(=O)c1cc2ccccc2oc1=NNC(=O)c1ccc(F)cc1 : .	6.7	6.6	.	-1.0	-14.8	.
Listed for CSc1ccccc1C(=O)Nc1cc(C)ccc1C : -15.7	1.6	1.4	-1.3	-3.2	6.8	2573
Listed for CC(C)C1COCCS(=O)(=O)N1Cc1ccccc1 (stereo not drawn) : .	8.0	9.1	.	5.8	2.9	.

Entries shown so far that have an aryl thioether with sulfur outside any ring (seven):
SMILES	PrP UTR inh	Mtb hypoxia inh	Mtb hypoxia inh growth	BJeLR viability	RN4220 kill	ugtP null kill	Bead autofluor
CSc1ccc(CCNC(=O)CCc2nnc3ccc(N4CCC5(CC4)OCCO5)nn23)cc1	-6.2	2.9	0.6	14.1	0.4	1.6	4828
Cn1c(=O)c2c(nc(SCCN3CCOCC3)n2Cc2ccccc2)n(C)c1=O	-16.5	.	.	4.2	-2.2	7.3	2396
Nc1cc(=O)[nH]c(SCC(=O)Nc2ccc(Cl)c(Cl)c2)n1	-10.8	6.1	10.4	6.2	1.8	-0.4	5159
CCCCNS(=O)(=O)c1ccc2nc(SCC(=O)Nc3ccccc3Cl)[nH]c2c1	-28.7	-5.1	-2.9	-6.3	-4.0	-29.3	2187
CCC(=O)Nc1ccc(C(=O)CSc2nnc(-c3ccccc3F)n2CCc2ccccc2)cc1	-12.0	2.1	2.9	8.2	11.2	-3.9	2079
CSc1ccccc1C(=O)Nc1cc(C)ccc1C	-15.7	1.6	1.4	-1.3	-3.2	6.8	2573
C/C(=N\NC(=O)CSc1ncccn1)c1ccc2c(c1)OCCO2	-15.2	.	.	4.7	.	.	5018

The list continues:
SMILES	PrP UTR inh	Mtb hypoxia inh	Mtb hypoxia inh growth	BJeLR viability	RN4220 kill	ugtP null kill	Bead autofluor
COc1ccc(C(c2nnnn2Cc2cccs2)N2CCN(c3ccc(F)cc3)CC2)cc1OC (stereo not drawn)	-14.7	.	.	-3.1	0.1	3.9	3849
CCN(C(=O)COC(=O)c1cc(=O)c2ccccc2o1)c1c(N)n(Cc2ccccc2)c(=O)[nH]c1=O	-25.0	3.9	9.3	-6.4	0.2	10.7	5339
O=C(CCCN1C(=O)c2ccccc2C1=O)Nc1c(C(=O)C2CC2)oc2ccccc12	-1.7	-0.4	-4.3	-13.1	-3.2	-3.5	4421
O=C(CCCn1c(=O)c2sccc2n(CC(=O)NCc2ccco2)c1=O)NCc1ccco1	-6.8	-0.9	11.0	5.8	-1.1	0.4	20462*
O=C(CNC(=O)c1ccccc1Br)NN=Cc1ccccc1O	.	0.2	-1.0	.	3.6	-2.7	.
COC(=O)c1ccc(CSc2nc3ccccc3c(=O)n2N)cc1	-31.1	-5.3	-2.0	-9.0	9.1	-0.8	3354
O=S(=O)(Nc1ccc2nc(N3CCOCC3)sc2c1)c1ccccc1	-103.8	6.2	5.4	.	0.2	-7.6	5294
COc1cccc(NC(=O)CCNC(=O)Cn2ccc3ccccc3c2=O)c1	-32.1	9.0	4.4	-17.4	5.0	-0.2	9612
O=C(COc1ccc(Cl)cc1)NCc1nnc(SCC(=O)NCC2CCCO2)o1 (stereo not drawn)	13.1	4.2	-8.3	-0.7	-2.0	4.1	2691
CCCc1ccc2oc(C(=O)NCCN3CCCC(C(N)=O)C3)c(C)c2c1 (stereo not drawn)	-5.9	6.9	7.4	8.2	0.8	12.1	5923
CC(=O)Nc1ccc2nc(-c3ccccn3)[nH]c2c1	-57.8	15.9	8.9	8.2	3.4	4.0	3182
O=c1cc(CN2CCC3(CC2)OCCO3)c2c(ccc3ccccc32)o1	-9.0	9.5	6.7	-1.7	-0.7	-5.4	3997
CCNc1nc(OC)nc(N2CCC(Cc3ccccc3)CC2)n1	-19.1	2.2	7.0	10.6	0.0	-5.8	7584
ON1C2CCCCC2N(O)C1c1ccccc1F (stereo not drawn)	-15.5	.	.	-6.6	4.8	2.2	4278
COc1cc(/C=N/NC(=O)COc2c(C)cc([N+](=O)[O-])cc2C)ccc1OC(=O)c1ccccc1Br	-19.5	.	.	-6.2	.	.	2710
N#CC1=C(N)Oc2cc(N)ccc2C1C1CC=CCC1 (stereo not drawn)	-42.3	5.5	13.1	-0.3	12.3	-6.3	8797
CN1CCN(c2nc(N(C)C)oc(=O)c2C#N)CC1	-11.6	5.3	9.5	5.0	4.8	-9.4	22716*
O=C1C2CCCCN2C(=O)N1CCN1CCN(c2ccc([N+](=O)[O-])cc2)CC1 (stereo not drawn)	-13.2	6.3	3.6	-5.5	5.9	1.7	2875

High-throughput results: PubChem, several laboratories

Compounds were not picked by outcome; any-hit rate near 3.9%.
